Assay outcomes deposited in PubChem BioAssay by several laboratories.
BJeLR lethal: BJeLR cell viability loss; actives 0.17% (n = 300,000); BJeLR (HRASV12) viability, CellTiter-Glo ATP luminescence, 48 h; reference of the scale not given here; inhibition, % (test concentration not listed);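 active means replicate mean above 50%; inconclusive means above 50% but judged a plate artefact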;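 further: 50 nL library stock added to about 25 µL; numbers are from one replicate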
Mtb hypoxia rep: Mtb hypoxia fluorescent reporter inhibition | actives 0.1% (n = 300,000) | M. tuberculosis hypoxia-regulated fluorescent reporter, fluorescence | fluorescence inhibition, % (concentration not given with the values) | AID 1159583;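 active means 35 to 45% if threefold the growth effect, above 45% if 1.5-fold the growth effect; inactive means the rest, general growth blockers included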;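 further: wells of about 50 µL received 100 nL stock; 0% = vehicle wells and 100% = reference inhibitor wells; whole bacteria with a GFP reporter of the hypoxia response; strong numbers were not always called active; many hits fall short of the cut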
ugtP null kill: kills S. aureus RN4220 lacking UgtP; S. aureus RN4220 ugtP deletion, OD600 growth, 16 h; some inactives read as strong as hits; growth inhibition, % (no concentration beside the values); actives 0.54% (n = 330,000);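 active means z-score under -3 and OD600 up to 0.15 on both plates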;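 further: plate controls were untreated wells for no effect and antibiotic for full effect; wells of about 80 µL received 100 nL stock; the first replicate is given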
PrP UTR inh: suppresses PrP 5' UTR mRNA reporter expression. cell-based PrP 5' UTR mRNA reporter, plate reader. inhibition, % (no concentration beside the values). actives 0.35% (n = 340,000). AID 488862;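 active means every replicate at 50% or more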;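 further: 0 = median of the neutral control wells; tested in H4 reporter cells; numbers are from one replicate; inactives centre near -14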
Autofluor counter: compound fluorescence in toxin protease inhibitor counterscreen | compound autofluorescence counterscreen, microsphere flow cytometry; stronger effect = higher value | fluorescence intensity (test concentration not listed) | actives 3.1% (n = 360,000) | AID 624483;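 active means at least 3 SD above the mean of all compounds, about 16000 in these data; inconclusive means too few beads counted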;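 further: 100 nL of 1 mM stock went into each well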
RN4220 kill: kills Staphylococcus aureus RN4220; inhibition, % (test concentration not listed); actives 0.33% (n = 330,000); S. aureus RN4220 growth, OD600, 16 h; AID 1259311;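 active means z-score of -3 or lower and OD600 up to 0.18 on both plates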;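 further: plate controls were untreated cells for no effect and reference antibiotic for full effect; stock transfer was 100 nL into about 80 µL; one replicate is shown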
Mtb hypoxia rep growth: second read-out of Mtb hypoxia rep, no call of its own (marks repeat the call); growth inhibition, %; measured here: M. tuberculosis growth (absorbance);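 0% = vehicle and 100% = reference antibiotic; read after six days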
Starred values were filed as active, the others as inactive; ? = inconclusive; . = no result given; & = joins results of further samples.

SMILES	BJeLR lethal	Mtb hypoxia rep	Mtb hypoxia rep growth	ugtP null kill	PrP UTR inh	Autofluor counter	RN4220 kill
CCOC(=O)[C@@H]1[C@H]2COc3ccccc3[C@@H]2N2C(=O)N(c3ccc(Cl)cc3)C(=O)[C@@]12C	-1	.	.	.	-19	3912	.
CCOCCSc1n[nH]c(=O)n1CCc1ccccc1	2	-2	-1	8	-22	3265	3.2
COc1ccc(CCNC(=O)c2ccc(CNS(=O)(=O)c3cccc(Cl)c3)cc2)cc1OC	-4	.	.	8	-2	2210	5.4
CCCCc1nc2cc(C(=O)N3CCNC(=O)C3)ccc2o1	2	9	6	6	-22	5731	0.3
OCC1(Cc2ccccc2)CCN(CCCC2CCCC2)CC1	7	7	4	5	4	3470	-0.8
C=CCn1c(SCCCc2ccccc2)nc2c1c(=O)[nH]c(=O)n2C	-9	3	8	-2	-1	5504	7.6
COc1ccc(N2CCN(C(=O)CC(C)S(=O)(=O)c3ccc4c(c3)NC(=O)CO4)CC2)cc1 (stereo not given)	-13	0	1	13	-10	4443	5.5
COc1ccc(CN2CCNC(=O)C2CC(=O)NCCc2cnccn2)cc1C (stereo not given)	-4	2	6	3	-32	5463	0.8
O=C(CSc1nnc(SCC(=O)c2ccco2)s1)c1ccco1	3	.	.	-7	-26	5125	2.7
O=C(c1cccc2ccccc12)N1CCN(c2ccccc2F)CC1	-22	12	20	3	-29	4288	6.8
COc1cccc(-c2c(C(=O)N/N=C/c3ccc(C)o3)nnn2-c2nonc2N)c1	5	.	.	.	-16	5488	.
O=S(=O)(c1cccs1)N1CCN(S(=O)(=O)c2cccs2)CC1	-1	-3	12	-15	-14	4734	-3.8
COc1ccc(C(=O)CSc2nnc(CNC(=O)c3ccc(S(=O)(=O)N(C)C)cc3)o2)cc1	8	10	-32	2	-26	6420	-0.1
O=C(CNC(=O)c1ccc2c(c1)OCCO2)NN=Cc1ccc([N+](=O)[O-])cc1	.	-1	-3	3	.	.	3.5
NCc1cc2c3c(c1)CCCN3CCC2	7	4	-8	0	-4	2988	0.6
O=C(Nc1ccc(F)cc1F)c1c(C(F)(F)F)ccnc1Oc1ccc(Cl)cc1	7	2	-2	9	-12	.	8.0
CCN(CC)S(=O)(=O)c1ccc(N2CCOCC2)c(NC(=O)C2CC2)c1	3	9	1	4	-12	4503	3.5
COC(=O)c1cnn2c(C(F)(F)F)cc(-c3ccc(F)cc3)nc12	0	1	8	0	-12	8917	5.3
CCOC(=O)C1(CCc2ccccc2)CCN(Cc2c(O)cccc2OC)CC1	14	-6	-4	10	-14	3989	3.9
COc1ccc(C(=O)NC(=S)Nc2cccc(S(=O)(=O)N3CCOCC3)c2)cc1	17	-8	-4	9	-10	3147	7.0
CC1COc2ccccc2N1C(=O)c1ccccc1Cl (stereo not given)	-4	-6	-10	6	4	3379	7.1
Cn1c(=O)[nH]c(=O)c2c1nc1n2CCCN1CCc1ccccc1	13	.	.	1	-18	3818	2.8
CCCCn1c(N)c(N(CC(C)C)C(=O)c2ccc(C)o2)c(=O)[nH]c1=O	.	7	-4	8	-32	7956	3.6
CCOc1ccc(CN2CCNC(=O)C2CC(=O)NCCCOc2cccnc2)cc1 (stereo not given)	3	12	3	4	-4	5923	3.5
O=C(CCN1C(=O)c2ccc([N+](=O)[O-])cc2C1=O)Nc1ccc(O)cc1C(=O)O	3	11	2	-1	-16	3494	4.2
(further entries)
SMILES	BJeLR lethal	Mtb hypoxia rep	Mtb hypoxia rep growth	ugtP null kill	PrP UTR inh	Autofluor counter	RN4220 kill
O=C(NCCC(=O)N1CCN(C(=O)c2ccco2)CC1)c1ccc(Br)cc1	-1	-8	-5	1	-12	6109	2.4
O=C(O)c1ccccc1N=Nc1c(O)[nH]c2ccc([N+](=O)[O-])cc12	4	-3	-2	0	-17	4112	1.1
Oc1ccc(-c2nc3ccccc3nc2-c2ccccc2)cc1	-1	0	14	-4	-4	4014	0.5
Cc1cccc(C)c1OP(N)(=O)OCC(F)(F)F (stereo not given)	6	.	.	.	-31	2321	.
O=[N+]([O-])c1ccc(-c2ccn[nH]2)o1	2	-1	11	51	-15	2361	15
Clc1ccc(C(Cn2ccnc2)OCc2csc3c(Cl)cccc23)c(Cl)c1 (stereo not given)	.	8	6	96*	4	5846	99*
O=C(O)c1ccccc1C(=O)Nc1nc(-c2ccc3ccccc3c2)cs1	-7	20	-2	9	-8	4604	1.7
C=CCC(NC(=O)c1ccc(C#N)cc1)C(=O)NCCC (stereo not given)	.	2	1	-1	-15	3029	-1.0
Cc1c(/C=C/C(=O)c2cccs2)cnn1C	3	8	7	0	-57	3078	7.2
CC1CC(C)CN(C(=O)COC(=O)Cc2ccc(Cl)cc2)C1 (stereo not given)	5	17	7	9	-19	3282	7.9
O=S(=O)(c1ccccc1)N1CCC(O)(CSc2ccccc2)CC1	5	11	0	-3	-14	2055	1.0
O=C1NCCN1c1ccc(CN2CCN(C3CCCCC3)C(CCO)C2)cc1 (stereo not given)	7	4	-4	1	-12	3285	5.3
CCOC(=O)c1c(O)c2c(n(Cc3ccco3)c1=O)CCCC2	-1	5	0	-3	-6	2479	5.3
COc1cc(C(CC(=O)N2CCOCC2)c2c(OC)cc(OC)c3ccc(=O)oc23)cc(OC)c1OC (stereo not given)	-1	5	14	-8	3	2970	1.2
CCN(CCNC(=O)c1ccc(CSc2nc3ccncc3[nH]2)cc1)c1ccccc1	-4	10	13	8	-12	5587	0.3
O=CN1CCN(C(=O)c2cc3cc(Cl)ccc3[nH]2)CC1	-6	14	6	6	-16	3256	3.3
CN1CCN(C(=O)c2ccc(-c3cccs3)s2)CC1	-4	.	.	.	-78	3847	.
CC(C)(C)CC(=O)Nc1nnc(SCC(=O)NC2CCCC2)s1	6	4	8	10	-28	3491	1.0
CCN(CC)CCSc1nc2ccc(OC)cc2[nH]1	-9	3	0	2	-12	4579	8.0
O=C(O)c1cc(NCc2ccccc2C(F)(F)F)ccc1N1CCOCC1	9	-6	5	-8	-6	22050*	0.1
CCc1ccc(C(=O)COC(=O)CNC(=O)c2ccco2)cc1	7	7	10	-6	-2	2987	6.4
O=C(NC1CCCC1)C1CCN(C(=O)Nc2cccc(Cl)c2)CC1	-5	-2	1	1	-4	5328	1.7
Cc1nnc(SCC(=O)Nc2ccc3c(c2)OCO3)s1	-14	0	1	-4	-18	5453	-1.3
CCOc1ccc(OCC)c(S(=O)(=O)NCc2ccccn2)c1	11	16	9	0	-20	8062	1.1
O=[N+]([O-])c1ccc(C=NNc2nc(N3CCCC3)nc(N3CCCC3)n2)o1	.	.	.	-6	.	.	8.9
Further records follow:
SMILES	BJeLR lethal	Mtb hypoxia rep	Mtb hypoxia rep growth	ugtP null kill	PrP UTR inh	Autofluor counter	RN4220 kill
COc1cccc(CNC(=O)C2CCN(S(=O)(=O)c3cccs3)CC2)c1	-5	12	8	10	6	7166	1.8
C/C=C/COC(=O)c1[nH]c2c(c1C)C(=O)CC(c1ccco1)C2 (stereo not given)	38	.	.	0	62*	5573	4.3
Cc1ccccc1OCC(=O)N(Cc1cccc(F)c1)C1CCS(=O)(=O)C1 (stereo not given)	-1	1	-1	4	-2	5224	2.6
Cc1ccc2cc(/C=N/NC(=O)[C@H](C)NC(=O)OC(C)(C)C)c(Cl)nc2c1	-13	.	.	.	-36	2544	.
CCN(c1ccc(OC)cc1)S(=O)(=O)c1nnc(NC(=O)C2CCCCC2)s1	1	5	4	8	-14	5518	-3.3
COc1ccc(/C=C/C(=O)Nc2cccnc2)cc1OC	2	-5	-10	27	-41	3388	4.5
CC(=O)C[C@@H](O)CC(=O)[C@@H]1OC(=O)CCCCCc2ccccc21	.	-6	3	-1	-22	3548	5.1
CC(=O)Nc1ccc(NC(=O)CSc2nnc(NC(=O)c3ccc(Br)o3)s2)cc1	2	10	5	-9	15	4444	3.1
COc1ccc(-n2nnc3c(=O)n(CC(=O)N4CCCC4)cnc32)cc1	3	7	6	4	-21	10106	8.8
C/C(=N\NC(=S)NCc1ccccc1)c1ccc(C)o1	-9	.	.	.	-24	3292	.
CCCCCn1c(C)c2c(OCC)cccc(=O)c2c1C	-5	2	9	8	.	4363	4.9
COc1ccc(CNC(=O)C2CSC(=O)C2)cc1 (stereo not given)	22	11	0	-2	-55	2919	3.6
CCOC(=O)c1ccc(NC2=CC(=O)C(=O)c3ccccc32)cc1	2	3	9	-30	-19	2695	-11
Cc1cc(N2CCOCC2)nc(-c2ccc(Br)cc2)n1	0	17	8	-4	-32	2427	-5.0
O=C(CC1CC=CCC(Cc2ccc(F)cc2)C(=O)OC(c2ccccc2)CNC1=O)NC(CO)Cc1ccccc1 (stereo not given)	.	4&14&3&6	10&4&5&7	2&11&-8&-5	.	.	8.3&7.8&5.7&7.7
COc1ccc(OCC(O)CN2CCN(c3ncccn3)CC2)cc1 (stereo not given)	4	11	8	17	-12	2268	6.1
CC(C)Cn1c(N)c(C=O)c(=O)n(C)c1=O	4	5	7	10	-17	5021	1.4
O=C1c2cccc3cc([N+](=O)[O-])cc(c23)C(=O)N1CC1CCCO1 (stereo not given)	0	-13	9	5	-15	6678	2.9
O=C1CN(C(=O)c2ccco2)C(c2ccccc2)c2cc(Cl)ccc2N1 (stereo not given)	-2	5	3	6	-15	2958	4.5
COC(=O)C1=Nc2ccccc2/C1=C\c1c(O)n(C)c(=O)n(C)c1=O	1	7	5	0	.	6472	6.8
CCc1c(C)nc(SCC(=O)NC2CCCC2)[nH]c1=O	-2	.	.	8	-13	3761	1.9
CCC1(c2ccc(F)cc2)NC(=O)N(CC(=O)N2c3ccccc3CC2C)C1=O (stereo not given)	.	-3	3	-1	2	5586	1.6
Cc1ccc(Cl)cc1NC(=O)COc1ccccc1	-3	5	2	2	-23	4296	3.2
CC(C)/C=N/NC(=O)c1cccc(N2CCCC2=O)c1	1	.	.	.	-4	2304	.
CN(C)c1ccc(NC(=O)Cn2c(=O)n(Cc3ccccc3)c(=O)c3ccccc32)cc1	19	-15	-1	-2	-29	6570	0.2

4 compounds from above with just PrP UTR inh, ugtP null kill and Mtb hypoxia rep.
canonical_smiles | PrP UTR inh | ugtP null kill | Mtb hypoxia rep
CCCCCn1c(C)c2c(OCC)cccc(=O)c2c1C | . | 8 | 2
COc1ccc(CNC(=O)C2CSC(=O)C2)cc1 (stereo not given) | -55 | -2 | 11
CCOC(=O)c1ccc(NC2=CC(=O)C(=O)c3ccccc32)cc1 | -19 | -30 | 3
Cc1cc(N2CCOCC2)nc(-c2ccc(Br)cc2)n1 | -32 | -4 | 17

Next records:
SMILES	BJeLR lethal	Mtb hypoxia rep	Mtb hypoxia rep growth	ugtP null kill	PrP UTR inh	Autofluor counter	RN4220 kill
Cn1c(COc2ccccc2)nnc1SCCSc1nnc(COc2ccccc2)n1C	9	11	7	7	-26	4030	5.8
COc1ccc(Cl)cc1C(=O)NNC(=O)CNC(=O)c1ccco1	.	1	1	4	-16	3703	5.1
Cc1nn(CC(=O)NCC2CCCO2)c(C)c1[N+](=O)[O-] (stereo not given)	7	-1	5	12	-17	2550	0.2
Cc1cc(C)nc(/N=C2\NC(=O)CC(C(=O)O)N2c2ccc(F)c(Cl)c2)n1 (stereo not given)	1	2	-3	6	.	.	-1.0
COc1ccc(CNC(=O)CCn2c(=O)[nH]c3ccccc3c2=O)cc1	6	6	-3	0	-18	3205	4.0
O=C(Nc1nccs1)c1ccc(Cl)c(S(=O)(=O)N2CCOCC2)c1	-2	2	1	-3	-37	3188	7.5
O=C(NCCCN1CCOCC1)c1sc2ccccc2c1Cl	6	15	-2	3	-32	2424	1.8
CC1(C)Cc2c(sc3nc(-c4cc5ccccc5o4)n(N)c(=O)c23)CO1	-5	7	-1	1	-126	21859*	4.5
Cc1cc(C)nc(NS(=O)(=O)c2ccc(CC(C)C)cc2)c1	8	0	9	4	-15	3297	2.0
CC(=O)c1c(C)[nH]c(C(=O)CSc2nnc(NC3CC3)s2)c1C	.	3	5	6	-12	?	2.6

Complete entries from above.
Shown for Cc1ccccc1OCC(=O)N(Cc1cccc(F)c1)C1CCS(=O)(=O)C1 (stereo not given) → BJeLR lethal: -1; Mtb hypoxia rep: 1; Mtb hypoxia rep growth: -1; ugtP null kill: 4; PrP UTR inh: -2; Autofluor counter: 5224; RN4220 kill: 2.6
Shown for COc1ccc(/C=C/C(=O)Nc2cccnc2)cc1OC → BJeLR lethal: 2; Mtb hypoxia rep: -5; Mtb hypoxia rep growth: -10; ugtP null kill: 27; PrP UTR inh: -41; Autofluor counter: 3388; RN4220 kill: 4.5
